Assay outcomes from PubChem BioAssay.
VDR inh: Inhibitors of the vitamin D receptor (VDR): qHTS; VDR-SRC2-3 peptide fluorescence polarization, 2 h; Vitamin D3 receptor (Homo sapiens), P11473; Potency, µM, inactives show max response, negative = inhibition, hits mostly inhibitors; 0.93% of 400,000 active; active = well fitted inhibition curve with a large enough effect; inconclusive = small, poorly fitted or top-dose-only effect, or another doubt; inactive = no such curve, though single readings can be large or run the other way; also: series mostly up to about 120 µM
Target sequence (P11473 whole entry, looked up): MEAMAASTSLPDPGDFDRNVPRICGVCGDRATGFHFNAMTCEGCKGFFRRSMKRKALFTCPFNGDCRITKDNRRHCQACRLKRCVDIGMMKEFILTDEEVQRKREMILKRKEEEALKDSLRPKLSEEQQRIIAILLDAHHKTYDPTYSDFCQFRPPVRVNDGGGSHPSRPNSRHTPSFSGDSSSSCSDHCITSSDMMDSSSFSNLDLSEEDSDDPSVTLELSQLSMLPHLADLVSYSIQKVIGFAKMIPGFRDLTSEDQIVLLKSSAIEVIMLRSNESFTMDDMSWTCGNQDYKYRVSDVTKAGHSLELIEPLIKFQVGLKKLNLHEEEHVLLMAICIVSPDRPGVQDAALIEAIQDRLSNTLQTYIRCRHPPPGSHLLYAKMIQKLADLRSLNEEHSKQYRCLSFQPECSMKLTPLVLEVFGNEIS
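Signal is fluorescence polarization, reporting how far test compounds block the interaction of VDR with the SRC2-3 coregulator peptide after a 2 h room-temperature incubation.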
* = called active by the depositor; ? = inconclusive; [ ] = dose if it differs, or a comment. % is scaled to controls: 0 for no effect and ±100 for the full control effect; potency is read from the fitted curve at half-maximal effect.

canonical_smiles	VDR inh
COC(=O)CN1C(=O)C2(C(C#N)=C(N)Oc3n[nH]c(-c4cccs4)c32)c2ccccc21 (configuration not stated)	8%
Cc1ccc(S(=O)(=O)Nc2ccccc2-c2nc3ccccc3[nH]c2=O)cc1	-4%
Cc1cccc(C2NC(=O)c3ccccc3O2)c1 (configuration not stated)	0%
Cc1nnc(Nc2ccc(Cl)cc2)n(N)c1=O	15%
CCOc1ccc(NC(=O)Cn2cc(C(=O)c3ccc(C)c(C)c3)c(=O)c3cc(F)ccc32)cc1	-9%
O=S(=O)(NC1CCCCC1)c1cccc(-c2nnc(-c3ccccc3)o2)c1	-8%
Cc1c(Cl)cccc1NS(=O)(=O)c1ccccc1	-11%
c1ccc(OCCCn2nnc(-c3ccc(N4CCOCC4)cc3)n2)cc1	10%
O[C@H]1c2ccccc2[C@H](Cc2cncs2)[C@@H]1Br	7%
Cc1c(Cl)cccc1-n1ncc(C(=O)N2CCC(C)CC2)c1C1CCN(C(=O)OC(C)(C)C)CC1	5%
O=S(=O)(c1ccc(Nc2ccc3c(c2)OCO3)nc1)N1CCOCC1	32%[activator]
CCOC(=O)N1CCN(C(=O)C2CCCN(S(=O)(=O)c3ccc(F)cc3)C2)CC1 (configuration not stated)	13%
O=C(NC1=NCCS1)c1ccc(Cl)c(S(=O)(=O)N2CCOCC2)c1	-19%
COc1ccc(Cc2nnc(NN)[nH]c2=O)cc1OC	4%
C/C(N)=C(/C#N)C(=O)COC(=O)c1ccc(O)cc1	-15%
COc1c(C)cc(C(=O)C2CCCN(C(=O)c3cc(C)n(C)n3)C2)cc1C (configuration not stated)	-4%
COc1ccc(-c2csc(NC(=O)c3ccc(N4C(=O)CCC4=O)cc3)n2)cc1OC	-2%
CN(Cc1ccccc1)C1=CC(=[N+]2CCCCC2)CC(C)(C)C1	3%
O=S(=O)(NCC1CCCO1)c1ccc(S(=O)(=O)N2CCCC2)cc1 (configuration not stated)	-8%
Cc1ccc(Cn2c(=O)c3cccnc3n(Cc3ccc(C)cc3)c2=O)cc1	-8%
COc1ccc(CNC(=O)CCN2C(=O)c3ccccc3C2=O)cc1	-5%
O=S(=O)(Nc1ccc(S(=O)(=O)N2CCCCC2)cc1)c1ccc(Br)s1	-5%
COc1ccc2[nH]c(C(=O)NCCCN3CCCC3=O)c(C)c2c1	1%
CC(C)Cn1c(/C=N/Nc2nc3ccccc3[nH]2)nc2ccccc21	-17%
Cc1ccccc1-c1n[nH]c(=S)n1C	-4%
COC(=O)Cc1c(C)nc2nc(NCc3ccc(Br)cc3)[nH]n2c1=O	18%
CCCCn1c(N)c(N(C(=O)CSc2nncn2-c2ccccc2C)C2CCCC2)c(=O)[nH]c1=O	-10%
NC(CC(=O)OC1CCCCC1)C(=O)OC1CCCCC1 (configuration not stated)	-6%
COc1ccc(CNC(=O)C[C@H]2C[C@H](C(=O)N3CCOCC3)[C@@]3(C)c4[nH]c5cc(CCC(=O)N(C)C)ccc5c4CCN3C2=O)cc1OC	5%
COc1ccc2c(c1)C(NS(=O)(=O)OCC(Cl)(Cl)Cl)CCC2 (configuration not stated)	-5%
O=C(COC(=O)/C=C/c1cccc(C(F)(F)F)c1)NC(c1ccccc1)c1ccccc1	-15%
c1ccc(-c2ccccc2OCCCN2CCOCC2)cc1	-4%
COC(=O)c1sc2ncn(CC(=O)NCCc3ccc(OC)c(OC)c3)c(=O)c2c1C	-14%
Cc1ccc(S(=O)(=O)N2CCOCC2)cc1NC(=O)COC(=O)c1ccc(Cl)nc1	2%
CC(C)(C)N1CC23C=CC(C[C@@H]2C1=O)O3 (some centres not stated)	9%
COc1ccc(CN(C)C(=O)CCc2ccc(S(=O)(=O)N3CCCCCC3)cc2)c(OC)c1	-12%

Quoted from the listing:
In VDR inh, `COc1ccc(CN(C)C(=O)CCc2ccc(S(=O)(=O)N3CCCCCC3)cc2)c(OC)c1` is listed with -12%
In VDR inh, `COC(=O)c1sc2ncn(CC(=O)NCCc3ccc(OC)c(OC)c3)c(=O)c2c1C` is listed with -14%
In VDR inh, `COC(=O)Cc1c(C)nc2nc(NCc3ccc(Br)cc3)[nH]n2c1=O` is listed with 18%
In VDR inh, `Cc1ccccc1-c1n[nH]c(=S)n1C` is listed with -4%

Continuation.
canonical_smiles	VDR inh
O=S(=O)(Nc1nc2ccccc2nc1Cl)c1ccccc1C(F)(F)F	-5%
CCCn1c(=O)c2ccccc2n2c(SCc3nnc(-c4ccccc4Br)o3)nnc12	6%
COc1ccc(-n2cnnc2SCC(=O)Nc2cccc(S(N)(=O)=O)c2)cc1	0%
Cc1c(Cl)c([N+](=O)[O-])nn1CC(=O)NCC(C)C	12%
NC(=O)CSc1ncc2c(n1)-c1ccccc1N(Cc1ccc(F)cc1)S2(=O)=O	13%
Cc1sc2nc(SCC(N)=O)n(-c3ccccc3)c(=O)c2c1C	-19%
COC(=O)c1ccccc1NC(=O)Nc1ccc(Cl)cn1	-9%
CCOC(=O)c1ccc(NC(=O)CCC(=O)NCc2ccco2)cc1	-4%
CC1Cc2ccccc2N1Cc1cccc(S(=O)(=O)N(C)C)c1 (configuration not stated)	-4%
CCOC(=O)C(NC(=O)N(C)C)(Nc1sc(C)c(CC)c1C#N)C(F)(F)F (configuration not stated)	-8%
CCOC(=O)Cc1csc(N/C(=N/S(=O)(=O)c2cc(Br)ccc2OCC)c2ccccc2)n1	-18%
COc1ccc(NC(=O)C2CCN(S(=O)(=O)c3ccc4[nH]c(=O)oc4c3)CC2)c(OC)c1	8%

No new results follow: two of the compounds above.
canonical_smiles	VDR inh
O=S(=O)(Nc1nc2ccccc2nc1Cl)c1ccccc1C(F)(F)F	-5%
CCCn1c(=O)c2ccccc2n2c(SCc3nnc(-c4ccccc4Br)o3)nnc12	6%

(further entries)
canonical_smiles	VDR inh
Cc1ccc(C)c(CN2C(=O)c3ccccc3S(=O)c3ccc(C(=O)N4CCN(c5ccccc5F)CC4)cc32)c1 (configuration not stated)	-20%
O=C(O)c1oc2ccc(Br)cc2c1-n1cccc1	-26%
Cc1cc(F)ccc1NC(=O)C1CCC(CNS(=O)(=O)c2ccc3c(c2)CCCC(=O)N3)CC1 (configuration not stated)	2%
O=C(Nc1ccc2oc(-c3cccc(F)c3)nc2c1)c1ccccc1F	-5%
CC(C)NC(=O)CNc1ccc(C(F)(F)F)cc1[N+](=O)[O-]	-6%
O=C(Nc1nc2c(s1)CCCC2)C1COc2ccccc2O1 (configuration not stated)	-20%
CC(C)CC1NC(=O)C(CC(C)C)N(CO)C1=O (configuration not stated)	-15%
CCc1ccccc1NC(=O)c1cc(S(=O)(=O)N2CCCC2)c[nH]1	?
COc1ccc(-c2cc(C(=O)NCCc3ccc(OC)c(OC)c3)c3c(-c4ccc(F)cc4)[nH]nc3n2)cc1	2%
Cc1ccc(S(=O)(=O)NCc2ccc(C(=O)N3CCN(Cc4ccccc4)CC3)cc2)cc1	2%
O=C(OCCN1CCOCC1)c1ccccc1Cl	5%
O=C(O)CC(CC(=O)Nc1ccc(N2CCOCC2)cc1)c1ccccc1 (configuration not stated)	9%
CCN(CC)C(=O)C1CCCN(Cc2ccc3ccccc3c2)C1 (configuration not stated)	-15%
CC1CCCN(C(=O)c2ccc(CNc3c(N4CCCCC4)c(=O)c3=O)cc2)C1 (configuration not stated)	-10%
O=C(Nc1ccc(F)c(Cl)c1)C1CCN(c2ncccn2)CC1	-7%
CC(=O)Nc1ccc(SCC(CC(C)C)N2CCN(CCc3ccccc3)CCC2=O)cc1 (configuration not stated)	?
COc1cc(Nc2nc3ccccc3n3nnnc23)cc(OC)c1OC	7%
CCc1cc(C(=O)N(C)CC(=O)N(CC(C)C)c2c(N)n(CC(C)C)c(=O)[nH]c2=O)sc1C	15%
COc1ccc(C(c2nnnn2Cc2ccccc2)N2CCN(c3nc4ccccc4s3)CC2)cc1OC (configuration not stated)	12%
CC(CC(=O)Nc1cccc(Cl)c1)c1ccccc1 (configuration not stated)	-3%
COc1ccccc1-n1cnc2c(c1=O)c1nc3ccccc3nc1n2-c1ccc(C)cc1	-22%
Cc1c(Cl)cccc1-c1ccc(C(=O)N2CCN(c3ccc([N+](=O)[O-])cc3)CC2)o1	-1%
CC(=O)c1c(O)cc(=O)n(-c2ccccc2)c1-c1cccc2ccccc12	-5%
CC(=O)Nc1ccc(S(=O)(=O)NC2(C(F)(F)F)NC(=O)N(C3CCCCC3)C2=O)cc1 (configuration not stated)	-2%
Cc1cc(C(=O)OCC(=O)NCCc2ccccc2)c(C)o1	13%
O=C(c1cc(-c2ccc3c(c2)OCO3)on1)N1CCOCC1	-24%
C=CCn1c(C)cc(C(=O)COC(=O)C2CC(=O)N(CCc3ccc(OC)c(OC)c3)C2)c1C (configuration not stated)	1%
CCOC(=O)c1c(-c2cccs2)csc1NC(=O)CSc1ncn[nH]1	-13%
CCCCCCCC(=O)NN=C1CCN(Cc2ccccc2)CC1	-5%
CN(Cc1ccccc1O)CC1CCCN(CCc2ccc(Cl)cc2)C1 (configuration not stated)	-8%
COc1ccc(NC(=O)c2sc3nc(C)c(C(=O)Nc4ccc(C)cc4C)c(-c4ccc(Cl)cc4)c3c2N)cc1	-3%
O=C(N[C@H]1CCC(=O)N(CCSc2ccc(Br)cc2)CC1)OCc1ccccc1	-2%
O=C(NC1CSC/C1=N\O)c1ccccc1 (configuration not stated)	13%
CN(CCO)Cc1csc2ccc(Br)cc12	0%
O=C(O)Cc1ccc(NS(=O)(=O)c2ccc3ccccc3c2)cc1	14%
CCOc1ccccc1N(CC(=O)Nc1ccccc1)S(=O)(=O)c1ccccc1	27%
COc1ccc(C(=O)O)c(OC)n1	-1%
Cc1cccc(C)c1NC(=O)NC1(C(=O)NCCCN2CCOCC2)CCCCC1	5%
COc1ccc(OC)c(/C=N/n2c(COc3ccccc3)n[nH]c2=S)c1	-4%
Cc1ccc(-c2ccc(CCC(=O)O)n2NC(N)=S)cc1	-12%
CC1CCCC(NC(=O)C2N(CCCN3CCCC3)C(=O)C3C(C(=O)Nc4cccc(Cl)c4)C4C=CC32O4)C1C (configuration not stated)	12%
Cc1ccc(NC(=O)CCC(=O)NNS(=O)(=O)c2ccccc2)cc1C	?
CCOC(=O)c1[nH]c2c(c1-c1ccccc1)C(=O)CC(c1ccc(OCC)cc1)C2 (configuration not stated)	1%
CCCOc1ccc(/C(O)=C2\C(=O)C(=O)N(CCCOC)C23C(=O)N(C)c2ccccc23)cc1 (configuration not stated)	26%
Cc1nn(C)cc1CN(C)S(=O)(=O)c1cccc([N+](=O)[O-])c1	-8%
Cc1ccc(CC(=O)N/N=C/c2ccc3c(c2)OCO3)cc1	12%
O=C(c1cccc(C(F)(F)F)c1)C1CCCN(C(=O)c2cc(C3CC3)[nH]n2)C1 (configuration not stated)	-10%
O=C(Cc1ccc(Cl)cc1)N/N=C/c1c(Cl)cccc1Cl	22%
O=C(c1ncc[nH]1)c1ccco1	-13%
CC(C)CNS(=O)(=O)c1ccc(CCC(=O)O)cc1	17%
COc1ccc(CNC(=O)CN2C(=O)CSc3ccc(S(=O)(=O)N4CCOCC4)cc32)cc1	-22%
Cc1ccc(-n2c(CSc3nc(C)cc(C)n3)nnc2SCC(=O)NCc2ccco2)cc1	1%
COc1cc(C(=O)O)ccc1O	-5%
Cc1c(CCC(=O)N[C@@H](CC(C)C)C(=O)O)c(=O)oc2c(C)c3oc4c(c3cc12)CCCC4	-28%
Cc1ccc(-n2ncc3c(Nc4ccc5c(c4)OCCO5)ncnc32)cc1Cl	13%
NS(=O)(=O)c1ccc(NC(=O)Nc2ccc(C(F)(F)F)cc2)cc1	6%
COc1cc(C(=O)Nc2ccc(C)cn2)ccc1OCC(=O)N1CCOCC1	-4%
CCn1nc(NS(=O)(=O)c2cccc3nonc23)c2cc3ccc(C)cc3nc21	-4%
CN1CCN(C(=O)c2ccccc2NC(=O)c2cccs2)CC1	-18%
CC(=O)Nc1ccc(SC[C@H](C)CN2CC[C@H](C(C)(C)C)CCC2=O)cc1	-21%

3 compounds out of the list, ordered by length of the SMILES, smallest number first.
canonical_smiles	VDR inh
COc1ccc(-n2cnnc2SCC(=O)Nc2cccc(S(N)(=O)=O)c2)cc1	0%
CCCOc1ccc(/C(O)=C2\C(=O)C(=O)N(CCCOC)C23C(=O)N(C)c2ccccc23)cc1 (configuration not stated)	26%
COc1ccc(-c2cc(C(=O)NCCc3ccc(OC)c(OC)c3)c3c(-c4ccc(F)cc4)[nH]nc3n2)cc1	2%

(continued)
canonical_smiles	VDR inh
CSC(=NC#N)N1CCN(c2c(C)cccc2C)CC1	3%
Cc1cccc(NC(=O)C2CCN(S(=O)(=O)c3ccc4c(c3)OCCO4)CC2)n1	-26%
CC1CCOC2(O1)C(=O)N(CN1CCN(c3cccc(Cl)c3)CC1)c1ccccc12 (configuration not stated)	-3%
CN(C)C(=O)CCC(=O)N1CCCC(N2CCN(c3cccc(C(F)(F)F)c3)CC2)C1 (configuration not stated)	12%
COc1ccc(OC)c(NC(=O)Cn2c(=O)n(Cc3nc(C)no3)c(=O)c3ccccc32)c1	-1%
COc1ccc(NC(=O)COc2ccc3c(c2)OCO3)cc1	4%
S=c1nc(-c2ccccc2)n(CCN2CCOCC2)c2c1CCCC2	-1%
COC1C(CO)OC(n2c3c(Cl)cccc3c3c4c(c5c6cccc(Cl)c6[nH]c5c32)C(=O)NC4=O)C(O)C1O (configuration not stated)	-1%
COc1ccccc1CNC(=O)CSc1nc2nc(C)c(Cc3ccccc3Cl)c(C)n2n1	-16%
CCOC(=O)c1cc(C)sc1NC(=O)CCC(=O)O	-8%
CC(C)COC(=O)Nc1nnc(SCc2ccccc2F)s1	-13%
O=[N+]([O-])c1ccc(Nc2c3ccccc3nc3ccccc23)cc1	-5%
CCCCn1c(=O)[nH]c2ccccc21	-18%

A portion of the library; count on the stated rates, not on these rows.
